High-throughput results (PubChem BioAssay)
ugtP null kill – growth inhibition of ugtP-null S. aureus, primary screen, RN4220 ugtP deletion, OD600. 16 h; some inactives read as strong as hits. growth inhibition, % (test concentration not listed). 330,000 compounds, 0.54% hits. AID 1259309, 2017;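 active = z-score under -3 and OD600 up to 0.15 on both plates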;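 also: plate controls were untreated wells for no effect and antibiotic for full effect; wells of about 80 µL received 100 nL stock; the first replicate is given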
Mtb hypoxia inh – PubChem AID 1159583; 300,000 compounds, 0.1% hits; fluorescence inhibition, % (no concentration beside the values); M. tuberculosis hypoxia-regulated fluorescent reporter, fluorescence;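 active = 35 to 45% if threefold the growth effect, above 45% if 1.5-fold the growth effect; inactive = the rest, general growth blockers included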;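 also: wells of about 50 µL received 100 nL stock; 0% = vehicle wells and 100% = reference inhibitor wells; whole bacteria with a GFP reporter of the hypoxia response; strong numbers were not always called active; many hits fall short of the cut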
BJeLR viability – MLPCN primary cell-based screen for lethality selective to Ras in HRASV12 cells | inhibition, % (test concentration not listed) | BJeLR (HRASV12) viability, CellTiter-Glo ATP luminescence, 48 h; reference of the scale not given here | AID 1554, 2009 | 300,000 compounds, 0.17% hits;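 active = replicate mean above 50%; inconclusive = above 50% but judged a plate artefact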;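 also: 50 nL library stock added to about 25 µL; numbers are from one replicate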
Sa RN4220 lethal – growth inhibition of S. aureus RN4220, primary screen, OD600; 16 h; inhibition, % (test concentration not listed); 330,000 compounds, 0.33% hits; AID 1259311, 2017;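 active = z-score of -3 or lower and OD600 up to 0.18 on both plates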;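 also: plate controls were untreated cells for no effect and reference antibiotic for full effect; stock transfer was 100 nL into about 80 µL; one replicate is shown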
PrP 5UTR inh – inhibition of PrP 5' UTR reporter expression | cell-based PrP 5' UTR mRNA reporter, plate reader | inhibition, % (concentration not given with the values) | 340,000 compounds, 0.35% hits | AID 488862, 2010;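 active = every replicate at 50% or more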;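 also: 0 = median of the neutral control wells; tested in H4 reporter cells; numbers are from one replicate; inactives centre near -14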
Autofluor counter – compound fluorescence in toxin protease inhibitor counterscreen; compound autofluorescence counterscreen, microsphere flow cytometry; active compounds read high; fluorescence intensity (no concentration beside the values); 360,000 compounds, 3.1% hits;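 active = at least 3 SD above the mean of all compounds, about 16000 in these data; inconclusive = too few beads counted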;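 also: 100 nL of 1 mM stock went into each well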
Mtb hypoxia inh growth – recorded beside Mtb hypoxia inh, whose call it bears; growth inhibition, %; measured here: M. tuberculosis growth (absorbance);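 0% = vehicle and 100% = reference antibiotic; read after six days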
* hit, by the source's call; ? = inconclusive; nt = no result given. Random draw from the library; any-hit rate near 4.1%.

A first look, 5 compounds:
SMILES	ugtP null kill	Mtb hypoxia inh	Mtb hypoxia inh growth	BJeLR viability	Sa RN4220 lethal	PrP 5UTR inh	Autofluor counter
Cc1cccn2cc(-c3ccc(S(=O)(=O)N4CCOCC4)cc3)nc12	0.4	7.3	9.0	5.9	1.2	-23.2	23299*
COc1ccc2c(C)nc(N/C(N)=N/S(=O)(=O)c3ccc(C)cc3)nc2c1	-9.2	0.2	1.5	-1.5	5.2	-0.3	3286
O=C(NCCCNc1ccc([N+](=O)[O-])cc1)C(F)(F)F	4.1	-1.1	7.0	0.9	4.4	-16.5	2463
Cc1onc(-c2c(F)cccc2Cl)c1C(=O)NC(=S)NC1CCS(=O)(=O)C1 (configuration not stated)	1.4	6.1	2.4	-1.9	7.7	-7.2	2422
CC(=O)OC1CCC2(C)C3CCC4(C)C(C(C)=O)CCC4C3CC3OC32C1 (configuration not stated)	9.0	4.4	3.4	nt	-1.7	-48.9	3935

Results, from the start:
SMILES	ugtP null kill	Mtb hypoxia inh	Mtb hypoxia inh growth	BJeLR viability	Sa RN4220 lethal	PrP 5UTR inh	Autofluor counter
Cc1cccn2cc(-c3ccc(S(=O)(=O)N4CCOCC4)cc3)nc12	0.4	7.3	9.0	5.9	1.2	-23.2	23299*
COc1ccc2c(C)nc(N/C(N)=N/S(=O)(=O)c3ccc(C)cc3)nc2c1	-9.2	0.2	1.5	-1.5	5.2	-0.3	3286
O=C(NCCCNc1ccc([N+](=O)[O-])cc1)C(F)(F)F	4.1	-1.1	7.0	0.9	4.4	-16.5	2463
Cc1onc(-c2c(F)cccc2Cl)c1C(=O)NC(=S)NC1CCS(=O)(=O)C1 (configuration not stated)	1.4	6.1	2.4	-1.9	7.7	-7.2	2422
CC(=O)OC1CCC2(C)C3CCC4(C)C(C(C)=O)CCC4C3CC3OC32C1 (configuration not stated)	9.0	4.4	3.4	nt	-1.7	-48.9	3935
O=[N+]([O-])c1ccc(N/N=C2/CCCCC2c2ccccn2)cc1 (configuration not stated)	nt	nt	nt	-6.7	nt	-6.2	2913
c1ccc2c(c1)C(=Nn1cnnc1)c1ccccc1-2	13.2	-0.5	-35.6	-0.8	-5.1	-13.4	9012
CCCn1c(N)c(N2CCCCC2)c(=O)n(CC(=O)Nc2cccc(S(=O)(=O)N(C)C)c2)c1=O	1.1	-5.9	3.0	nt	3.1	-10.3	3842
CNC(=O)C(C)N1c2cccc3cccc(c23)S1(=O)=O (configuration not stated)	0.5	-4.9	-8.4	2.7	1.9	-14.2	3654
O=c1[nH]n(CCO)c(=O)c2cccnc12	9.0	19.2	4.5	-1.5	4.8	-11.9	3772
CCCCN1C(=O)C(=O)N(CC(=O)Nc2cc(S(=O)(=O)N(C)C)ccc2C)C1=O	6.3	3.8	5.9	-4.0	5.9	-11.0	nt
Cc1ccc(CNC(=O)c2cc(S(=O)(=O)N3CCCC3)cn2C)cc1	5.4	0.4	2.6	-5.5	1.9	-7.3	6078
NC(Cc1nc(-c2ccc(Br)cc2)cs1)=NO	14.4	2.9	5.0	nt	2.0	nt	nt
COc1ccc(N2CC(NC(=O)c3cccc4ccccc34)CC2=O)cc1OC (configuration not stated)	-1.7	7.4	-1.5	-0.7	5.8	-4.4	nt
O=C(c1cc2ccccc2o1)N1CCN(S(=O)(=O)c2ccccc2)CC1	1.0	5.9	4.4	nt	2.4	8.7	?
Cc1cccc(C(=O)n2c(=S)nc3ccccn32)c1	12.0	nt	nt	-6.0	4.3	7.0	2094
O=C1CCN(CCc2ccccc2)CCN1[C@H](CSc1ccc(Br)cc1)Cc1ccccc1	nt	nt	nt	4.4	nt	-18.6	3944
Cc1cccc(Nc2c([N+](=O)[O-])ccc3nonc23)c1C	8.4	0.3	-6.8	3.0	7.1	-23.7	3696
N/C(=N\S(=O)(=O)c1cc(C(F)(F)F)cc(C(F)(F)F)c1)c1ccncc1	11.5	-5.6	-7.3	-0.7	7.1	-12.2	6541
CCOC(=O)C1(CCOc2ccccc2)CCN(Cc2ccc(C(=O)OC)cc2)CC1	14.5	-2.0	9.5	8.1	0.8	-18.5	4537
CN(C)CCOC(=O)CCc1ccccc1	-0.7	6.7	3.1	-4.5	6.0	-25.1	3198
Cc1c(NC(=S)NC(=O)CSc2ccc(Cl)cc2)cccc1C(=O)O	19.2	5.2	7.8	-7.3	-0.1	-9.0	5108
O=C(NCc1cccnc1)[C@@H]1CC=C[C@@H]2CCN(Cc3ccccc3)C(=O)[C@@H]21	nt	nt	nt	4.9	nt	-1.0	4054
O=C(CCCO)NN=Cc1ccccc1[N+](=O)[O-]	2.9	-1.3	5.4	nt	6.4	nt	nt
CCC(C)N(C(=O)CSc1nc(-c2cccs2)nc2ccccc12)C1CCS(=O)(=O)C1 (configuration not stated)	12.3	1.0	1.6	nt	1.7	3.2	6399
COc1ccc2c(c1)cc(C)c1nnc(SCC(=O)N(C)c3nc(-c4ccccc4)cs3)n12	1.5	10.5	-5.1	-11.7	7.4	-4.8	?
O=C(O)CCn1cc(/C=C2\NC(=S)N(c3ccccc3)C2=O)c(-c2ccc(Br)cc2)n1	7.1	3.6	9.4	8.0	5.4	39.3	3237
c1ccc(C2CC(c3ccccc3)n3ncnc3N2)cc1 (configuration not stated)	5.6	1.8	2.7	5.8	7.9	-24.7	9440
CC(C)n1c(SCC(=O)Nc2nncs2)nnc1C1CC1	4.9	12.4	-2.5	-6.5	1.3	-16.9	6213
CCCCNC(=O)CN1C(=O)c2cccc(N)c2C1=O	7.3	14.2	9.0	7.4	4.7	-5.5	3903
Cc1ccc(C2C3C(=O)N(c4ccccc4)C(=O)C3[C@]3(C)C(=O)N(CC4CC4)CC(=O)N23)o1 (some centres not stated)	1.6	1.2	2.7	nt	7.8	nt	nt
COc1cccc(-n2c(=O)c3sccc3n(CC(=O)NCC3CCCO3)c2=O)c1 (configuration not stated)	-7.4	-5.3	-6.9	-12.9	-5.3	-1.3	5233
Cc1ccc(S(=O)(=O)N(C)Cc2nc(-c3ccc(Br)cc3)no2)cc1	8.1	nt	nt	-11.3	2.9	-13.5	5711
Cc1ccc(C(=O)NCCc2nnc(SCC(=O)Nc3cccc(C(=O)O)c3)n2C)cc1	2.1	-4.8	-3.4	nt	2.3	-16.8	5206
Cc1cccnc1NC(=O)CCNC(=O)c1ccc(Br)cc1	5.7	1.0	-15.5	-1.3	0.9	-35.0	6011
COc1ccc(N2CC(C(=O)N[C@@H](C)C(=O)NC3CCCC3)CC2=O)cc1 (some centres not stated)	8.3	4.7	-4.1	7.1	4.0	-18.1	4190

As a short view, part of the list above:
SMILES	ugtP null kill	Mtb hypoxia inh	Mtb hypoxia inh growth	BJeLR viability	Sa RN4220 lethal	PrP 5UTR inh	Autofluor counter
Cc1cccnc1NC(=O)CCNC(=O)c1ccc(Br)cc1	5.7	1.0	-15.5	-1.3	0.9	-35.0	6011
COc1ccc(N2CC(C(=O)N[C@@H](C)C(=O)NC3CCCC3)CC2=O)cc1 (some centres not stated)	8.3	4.7	-4.1	7.1	4.0	-18.1	4190

New compounds follow:
SMILES	ugtP null kill	Mtb hypoxia inh	Mtb hypoxia inh growth	BJeLR viability	Sa RN4220 lethal	PrP 5UTR inh	Autofluor counter
CC1(c2ccc(OC(F)F)cc2)NC(=O)N(N=Cc2c(O)ccc3ccccc23)C1=O (configuration not stated)	-2.3	6.6	1.9	nt	5.5	nt	nt
O=C(CN1CCN(C(=O)c2ccco2)CC1)Nc1cc(Cl)ccc1Cl	-1.8	6.2	7.6	-3.4	5.1	-5.9	3940
CN(C)c1ccc(NC(=O)CN2CCC(O)(c3ccccc3)CC2)cc1	8.9	-2.7	6.8	-2.9	6.5	-12.5	4318
CCN(CC)CC(=O)Nc1ccc(-c2nc3cc(NC(=O)CN(CC)CC)ccc3o2)cc1	-7.4	nt	nt	14.1	0.8	-11.1	4701
O=C(C=Cc1ccccc1)c1ccc([N+](=O)[O-])cc1	0.2	18.1	19.5	nt	8.4	-41.4	3521
CN(C)CCCNC(=O)C[C@H]1C[C@H](C(=O)N2CCOCC2)[C@@]2(C)c3[nH]c4cc(-c5ccco5)ccc4c3CCN2C1=O	-1.7	-13.9	5.7	nt	2.3	-5.2	3163
Cc1nnc(NN=Cc2ccc(-c3ccccc3F)o2)n1N	-5.7	-8.0	-3.1	nt	6.9	nt	nt
O/N=C/c1cn(-c2ccccc2)nc1-c1ccccc1	nt	nt	nt	7.6	nt	-10.8	3758
CC1(C)Cc2c(C#N)c(N3CCN(C(=O)c4ccccc4)CC3)nc(Cc3ccccc3)c2CO1	5.4	nt	nt	-8.4	-2.9	-16.9	2102
CCc1ccc(C2c3[nH]c4ccccc4c3CCN2C(=O)CN2CCN(CC)CC2)cc1 (configuration not stated)	-7.9	4.3	-2.4	7.1	-5.4	-20.1	2800
COC(=O)Nc1ccc(S(=O)(=O)N2CCCC(C(=O)O)C2)cc1 (configuration not stated)	-17.7	0.5	2.0	4.1	-7.7	-11.4	3544
C/C(CC1(O)C(=O)Nc2ccccc21)=N\O (configuration not stated)	nt	nt	nt	2.0	nt	-8.5	2568

Complete entries, looked up by structure. Order of values: ugtP null kill | Mtb hypoxia inh | Mtb hypoxia inh growth | BJeLR viability | Sa RN4220 lethal | PrP 5UTR inh | Autofluor counter
Results for CCc1ccc(C2c3[nH]c4ccccc4c3CCN2C(=O)CN2CCN(CC)CC2)cc1 (configuration not stated) → -7.9 | 4.3 | -2.4 | 7.1 | -5.4 | -20.1 | 2800
Results for O=C(C=Cc1ccccc1)c1ccc([N+](=O)[O-])cc1 → 0.2 | 18.1 | 19.5 | nt | 8.4 | -41.4 | 3521

(continued)
SMILES	ugtP null kill	Mtb hypoxia inh	Mtb hypoxia inh growth	BJeLR viability	Sa RN4220 lethal	PrP 5UTR inh	Autofluor counter
COc1cc(NS(=O)(=O)c2ccc(C)c(C)c2)c(OC)cc1Cl	4.2	7.6	1.2	0.5	-0.2	-12.0	5905
CCOC(=O)N1CCC(NC(=O)C2CCCN(S(=O)(=O)c3cccc4nsnc34)C2)CC1 (configuration not stated)	5.8	10.9	-5.5	1.3	-1.0	-7.2	3456
O=c1c2ccccc2ncn1CCOCCOc1ccc([N+](=O)[O-])cc1	-17.4	-5.0	19.5	3.3	-1.4	-15.6	4349
CCNC(=O)C(=O)Nc1cc2c3c(c1)CCN3C(=O)CC2	-2.3	-6.3	8.4	-3.8	0.1	-11.4	5600
O=[N+]([O-])c1ccc(N2CCCCCC2)c([N+](=O)[O-])c1	-1.9	4.1	-3.6	-0.7	2.3	-11.5	3221
O=C1c2[nH]nc(-c3ccccc3O)c2C(c2ccccc2F)N1Cc1ccco1 (configuration not stated)	54.0	13.3	24.2	1.4	2.3	2.1	?
Cc1nnc(SCc2ccc(CSc3nnc(C)c(=O)[nH]3)cc2)[nH]c1=O	1.7	5.0	18.3	6.0	1.9	-14.1	2508
CC(=O)c1csc(-c2cccc(-c3nc4ccc(Cl)cn4c3NC3CCCCC3)c2)c1	0.7	12.3	6.3	-2.3	-3.3	-11.2	2938
CCNc1nc(NCc2ccccc2)nc(Oc2ccc(=O)[nH]n2)n1	-1.7	-2.4	1.7	4.9	0.5	-7.7	2850
O=[N+]([O-])c1[nH]cnc1/C=C/c1ccccc1	3.1	13.3	-2.6	-0.5	9.1	-12.0	4302
COc1ccc(-c2cn3cccnc3n2)cc1	2.6	2.6	0.2	1.1	6.5	-24.1	3831
CC(=O)N(C1=C(N2CCOCC2)C(=O)c2ccccc2C1=O)c1ccc(C(=O)O)cc1	-5.0	15.8	9.7	-14.6	5.2	-0.6	5953
CCOC(=O)c1nc(Nc2cc(Cl)ccc2OC)c2ccccc2n1	-11.1	9.6	-2.8	3.9	6.8	-22.7	3734
O=C(Nc1nccs1)c1ccc([N+](=O)[O-])cc1	11.3	5.5	0.2	-0.8	6.8	-19.8	3520
S=C1NC2(CCCCCC2)N=C1c1ccccc1	7.4	-15.3	0.6	-6.6	5.2	-19.3	4677
Cc1cc(=O)[nH]c(N/N=C/c2cn(CCC#N)nc2-c2ccccc2)n1	nt	nt	nt	2.5	nt	-24.0	4351
CN1CCN(S(=O)(=O)c2ccc(Nc3cccc(Cl)c3)c([N+](=O)[O-])c2)CC1	13.2	-4.2	0.1	nt	6.6	-12.4	2855
O=C(COc1ccccc1[N+](=O)[O-])N(C1CCCCC1)C1CCS(=O)(=O)C1 (configuration not stated)	6.4	-4.8	2.4	2.1	3.5	-10.2	nt
